# Screens (PubChem BioAssay)
# CDC25B CDK2 inh – primary biochemical HTRF screen for blockers of M-phase inducer phosphatase 2 binding to CDK2/cyclin A | P30305+P24941 | HTRF CDC25B-CDK2/CyclinA binding, anti-His/anti-Flag; stronger effect = higher value | z-score (concentration not given with the values) | hit rate 0.72% among 94,000 | AID 1259370, 2018;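 note: score is relative to mean and SD of negative controls; strong numbers were not always called active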
# TAR Tat displ – TAR RNA-Tat peptide displacers, HIV-1, primary screen, biochemical, FRET, FAM/TAMRA-labeled Tat | HIV-1 TAR RNA, Tat peptide displacement FRET; stronger effect = higher value | z-score (no concentration beside the values) | hit rate 0.6% among 100,000 | AID 1259389, 2018;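 note: score is relative to mean and SD of negative controls; some compounds called inactive have numbers as strong as hits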
# An asterisk follows results filed as active; . = not tested or not shown.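 Rule for the calls: active = z-score from 3 up in half or more of its runs; inactive = the rest.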
# Each structure is followed by: CDC25B CDK2 inh	TAR Tat displ
CCOC(=O)CC1=NN=C(N)SC1
  -0.18	0.43
Cn1cnnc1SCC(=O)n1c2c(c3ccccc31)CCCC2
  0.85	0.48
Cc1c(C(=O)N2CCCC2)c(S(=O)(=O)Nc2ccc(Cl)cc2)c(C)n1C
  .	0.77
CCCSc1nnc(NC(=O)C(=O)c2cc(C)n(CCOC)c2C)s1
  -2.12	2.14
Cn1cnc2c(C(=O)O)nn(-c3ccc(F)cc3)c2c1=O
  -0.8	-0.07
CCOC(=O)c1nnn(-c2cc(Cl)ccc2OC)c1C(=O)OCC
  -2.91	1.61
Cn1nc(C(=O)NCCCN2CCCC2=O)c2c1-c1ccccc1S(=O)(=O)C2
  -0.35	0.96
CCCc1nc(C)c2c(=O)[nH]c(-c3cc(S(=O)(=O)N4CCN(CC)CC4)ccc3OCC)nn12
  .	-0.09
O=C(CSc1nc(-c2ccc(F)cc2)cc(C(F)(F)F)n1)NCCCn1ccnc1
  0.29	-1.89
Cc1ccc2c(c1)Cc1c(nc(-c3ccc(F)cc3)[nH]c1=O)O2
  -2.12	1.7
O=C(CSc1ccccc1)OCc1cc(=O)n2nc(-c3cccs3)sc2n1
  .	-0.29
c1nc(NCCN2CCOCC2)c2nc3n(c2n1)CCCCC3
  .	2.06
C=C(C1CC1)N(Cc1ccccc1)C(=O)c1cccc(F)c1
  -0.79	.
O=S(=O)(NCC1CCCO1)c1ccc(-n2cnnn2)cc1 (stereo not drawn)
  -1.01	2.57
CCOc1ccc(-c2cc(-c3nc(-c4ccccc4C)no3)[nH]n2)cc1
  .	0.58
COc1ccc(Br)c(-c2nc(-c3cccs3)no2)c1
  -0.23	.
CCOC(=O)C1=C(C(F)(F)F)Nc2ncnn2C1c1cccc(OC)c1OC (stereo not drawn)
  .	1.62
CNC(=O)c1ccc2snnc2c1
  -1.73	.
CCOC(=O)C1=C(C)NC2=C(C(=O)CCC2)C1c1ccc(SC)cc1 (stereo not drawn)
  -0.04	1.05
Cn1nnnc1SCCCNCc1cc(Br)ccc1OCc1ccc(F)cc1
  0.17	0.78

# Reprinted from the part before: seven compounds; new compounds follow.
# Each structure is followed by: CDC25B CDK2 inh	TAR Tat displ
O=S(=O)(NCC1CCCO1)c1ccc(-n2cnnn2)cc1 (stereo not drawn)
  -1.01	2.57
CCOc1ccc(-c2cc(-c3nc(-c4ccccc4C)no3)[nH]n2)cc1
  .	0.58
COc1ccc(Br)c(-c2nc(-c3cccs3)no2)c1
  -0.23	.
CCOC(=O)C1=C(C(F)(F)F)Nc2ncnn2C1c1cccc(OC)c1OC (stereo not drawn)
  .	1.62
CNC(=O)c1ccc2snnc2c1
  -1.73	.
CCOC(=O)C1=C(C)NC2=C(C(=O)CCC2)C1c1ccc(SC)cc1 (stereo not drawn)
  -0.04	1.05
Cn1nnnc1SCCCNCc1cc(Br)ccc1OCc1ccc(F)cc1
  0.17	0.78
Nc1nccc(-c2ccc(NC(=O)Nc3ccc(OC(F)(F)F)cc3)cc2)n1
  -0.99	.
O=C(CCCN1C(=O)c2cccnc2Oc2ccccc21)NCCc1cccs1
  .	1.51
CCCCOC(=O)Nc1sc2c(c1C(N)=O)CCCC2
  -5.29	1.37
O=S1(=O)N=C(SCc2cccnc2)Nc2ccccc21
  .	2.35
CC(C)C(=O)OCc1cc(=O)n2nc(C(C)C)sc2n1
  .	0.93
CCOC(=O)c1nc(C)sc1-c1ccnn1C(=O)c1cccc(Cl)c1
  -1.5	.
CN(C)CCOC(=O)c1cnn2c(C(F)(F)F)cc(-c3cccs3)nc12
  -0.72	0.85
COc1cc2c(cc1OC)C1(CCCC1)CN(C(=O)c1cc(Br)ccc1OC)C2
  -1	0.49
CC(=O)Oc1cc(C(C)C)c(OCCN(C)C)cc1C
  -0.71	.
CSc1nc(-n2nc(C)cc2C)nc(-c2ccco2)c1C#N
  -1.43	.
N#Cc1cnc(SCC(=O)NC(=O)Nc2ccccc2)nc1N
  -1.82	.
COc1ccc(C2CC(=O)C3=C(C2)NC(=O)CC3c2ccc3c(c2)OCO3)cc1OC (stereo not drawn)
  -0.77	0.63
COc1ccccc1-n1cc(-c2ccccc2)c2c(N3CCCC3)ncnc21
  1.51	0.44
CCCC12CN3CC(CCC)(CN(C1)C3c1ccc(OC)c(OC)c1)C2=O (stereo not drawn)
  1.24	0.18
CCCn1c(=O)[nH]c2c(c1=O)C(CC)(CC)Cc1ccccc1-2
  -1.06	0.53
Cc1ccc(Cc2c(C)[nH]c3nc4ccccc4n3c2=O)cc1
  0.23	1.5
COCCOC(=O)C1=C(C)NC2=C(C(=O)CC(c3cccs3)C2)C1c1ccsc1 (stereo not drawn)
  -0.06	0.65
c1ccc(-c2cc3n(c2)CCn2cccc2-3)cc1
  .	-13.5
COC(=O)c1c(SCC(=O)Nc2ccccc2Cl)[nH]c2ccccc2c1=O
  .	-0.64
CCC(=O)N1c2ccccc2CC1C(=O)NC1CC1 (stereo not drawn)
  .	1.11

# Laid out differently: entries from further up
CCC(=O)N1c2ccccc2CC1C(=O)NC1CC1 (stereo not drawn)
- CDC25B CDK2 inh: .
- TAR Tat displ: 1.11

Cn1cnnc1SCC(=O)n1c2c(c3ccccc31)CCCC2
- CDC25B CDK2 inh: 0.85
- TAR Tat displ: 0.48

# Further records
# Each structure is followed by: CDC25B CDK2 inh	TAR Tat displ
O=C1CC(c2ccccc2Cl)c2cc3c(cc2N1)CCC3 (stereo not drawn)
  0.05	0.08
O=C1CCSc2ccc(S(=O)(=O)NCC3CCCO3)cc2N1 (stereo not drawn)
  .	0.41
CC(=O)N1c2ccccc2CC1C(=O)NCCCN1CCCC1 (stereo not drawn)
  .	0.94
CCCC(NC(=O)C1CCN(c2ncnc3c2nc2n3CCCCC2)CC1)c1cccs1 (stereo not drawn)
  .	1.15
COc1ccc(-c2onc(C)c2C)cc1S(=O)(=O)Nc1ccc2c(c1)OCO2
  .	0.22
COc1cc(/C=c2\sc3nc4ccccc4n3c2=O)ccc1OCc1ccc(F)cc1
  -2.81	.
CC(C)C1(C)N=C(c2ccc3c(c2)OCO3)CC(c2ccccc2O)N1 (stereo not drawn)
  0.8	.
COc1ccc(-c2ccc3ccccc3n2)cc1OC
  -1.37	.
Cc1cc(N2CCN(c3ccccn3)CC2)n2nc(C)nc2n1
  -0.85	.
Cc1ccc2ccc(C(Nc3ccccn3)c3cccc(Br)c3)c(O)c2n1 (stereo not drawn)
  -1.51	2.28
C=CCSc1nc2c(c(=O)[nH]1)C(c1cccnc1)C(C(=O)OCC)=C(C)N2 (stereo not drawn)
  -1.06	0.22
NC(=O)c1nc(-c2ccco2)nc2c1[nH]c(=O)n2-c1ccc(F)cc1
  .	-2.94
CCOC(=O)c1sc2sc(C(=O)OCC)c(C(C)(C)C)c2c1N
  -1.61	.
Cc1cc(C)c2c(-n3cccc3)c(C(=O)NCCCN3CCCC3=O)sc2n1
  -1.36	-1.32
CN1CCN(CCCNC(=O)Cn2c(=O)c3cccn3c3cccnc32)CC1
  .	0.81
COc1cccc2cc(S(=O)(=O)c3ccccc3)c(=O)oc12
  -0.39	.
Cc1cc(NC(C)C)n2nc(C(F)(F)F)c(-c3ccc(Cl)cc3)c2n1
  1.51	1.93
O=C(O)CCCCCN1C(=O)/C(=C2/C(=O)N(CC(=O)O)c3ccccc32)SC1=S
  -3.48	.
Cc1ccc(-n2c(=O)[nH]c3sc4c(c3c2=O)CCCC4)cc1
  -0.39	.
CC(C)(C)c1nnc2sc(-c3ccc(F)cc3)nn12
  -0.16	1.12

# Overlap with the part before: 2 compounds, then new ones.
# Each structure is followed by: CDC25B CDK2 inh	TAR Tat displ
Cc1ccc(-n2c(=O)[nH]c3sc4c(c3c2=O)CCCC4)cc1
  -0.39	.
CC(C)(C)c1nnc2sc(-c3ccc(F)cc3)nn12
  -0.16	1.12
CC(=O)N(Cc1nc2ccccc2c2nc3ccccc3n12)c1ccccc1Br
  -1.55	.
O=C(CSc1ccc2nnc(-c3ccc(Cl)cc3)n2n1)NC1CCCCC1
  0.31	.
CC1=CC(C)(C)N(C(=O)NC2CCCCC2)c2ccccc21
  -0.23	-0.22
Cc1cc(C)c2c(n1)sc1c(=O)sc(NC(=O)c3ccc(C(F)(F)F)nc3C)nc12
  -1.02	.
O=C1c2cccnc2C(=O)N1Cc1ccc(S(=O)(=O)Nc2ccc(-c3ccno3)cc2)s1
  .	-0.19
COc1ccc(NC(=O)CSc2nnc(Cc3cccn3C)n2-c2ccc(F)cc2)cc1
  0.1	.
CC(C)(C)NC(=NCC1CC1)NN
  -0.66	.
Cc1ccc(S(=O)(=O)NC(=O)Nc2ccccc2N2CCCCC2)cc1
  -2.15	.
CC1CCCC(C)N1c1nn(C)c(=O)[nH]1 (stereo not drawn)
  -2.65	.
COC(=O)NC12CCCC(CCC1)C2
  -0.18	.
COc1ccc(C(=O)CC2(O)C(=O)Nc3ccccc32)cc1 (stereo not drawn)
  -1.22	-1.55
NNC(=O)c1csc(-c2ccccc2)n1
  -1.1	.
CCOC(=O)c1c(C)sc(-c2c(-c3ccc(Cl)cc3)[nH]c3c2c(=O)n(C)c(=O)n3C)c1O
  -0.47	-4.6
O=C1CCSc2ccc(S(=O)(=O)N3CCCc4ccccc43)cc2N1
  .	-2.56
CN(C)CCNc1c(-c2ccccc2)c(=O)c1=O
  .	1.95
O=[N+]([O-])c1ccccc1-c1ncc2ccccn12
  -0.71	.
CCN(CC)C(=O)Cn1cc(SCC(=O)N2CCOCC2)c2ccccc21
  .	0.33
Cc1ccc(C)c(Cn2c(=O)n(Cc3ccco3)c(=O)c3oc4ccccc4c32)c1
  .	0.9
O=C(Cn1cnc2c(nnn2Cc2ccc(F)cc2)c1=O)NCC1CCCO1 (stereo not drawn)
  -1.13	.
O=C(NCc1ccco1)N1CCN(c2nc3cc(F)ccc3n3cccc23)CC1
  .	0.99

# The listing continues.
SMILES,CDC25B CDK2 inh,TAR Tat displ
Nc1cc(Cl)c(N)cc1Cl,-0.33,.
Cc1nc2c(c(C)nn2C(C)(C)C)c(C)c1CCC(=O)NCC1CCCO1 (stereo not drawn),1.09,1.87
Cc1ccnc(N2C(=O)c3ccccc3C2Nc2ccccc2Cl)c1 (stereo not drawn),-1.94,0.97
CC1=C(C(N)=O)C(c2ccccc2Cl)n2nc(-c3cccc(C)c3)nc2N1 (stereo not drawn),-1.03,.
COc1cc(C)c(C)cc1S(=O)(=O)Nc1ccc(N2CCCS2(=O)=O)cc1,.,0.44
C=C1c2ccc(C)cc2NC(=O)N1c1ccc(Cl)cc1,-1.72,.
Cn1c(=O)[nH]c(=O)c2c1ncn2Cc1ccccc1F,0.28,0.06
COC(=O)N1c2ccccc2CCc2ccccc21,0.06,0.16
NC(=O)OCC(COC(N)=O)c1ccccc1,-0.53,0.27
COC(=O)CN1C(=O)c2cccnc2Sc2ccccc21,-1.38,1.51
Cn1cc(S(=O)(=O)N2CCc3ccccc32)cc1C(=O)Nc1ccc(F)cc1,-1.64,1.09
CC1=C(C(=O)OCc2ccccc2)C(c2ccc3c(c2)OCO3)C2=C(CC(c3ccccc3)CC2=O)N1 (stereo not drawn),-1.77,1.69
Clc1ccc(-c2ccc(CNCc3cccnc3)o2)cc1,.,-0.26
CCOC(=O)/C(C#N)=C/NNc1c(C)csc1C(=O)OC,1.45,.
CCC1(C)CC(=O)c2c(ccc3oc(C(=O)NC4CCC(C)CC4)c(C)c23)O1 (stereo not drawn),-0.96,1.67
CCc1cccc(NS(=O)(=O)c2ccc(-c3n[nH]c(C)c3C)s2)c1,.,-0.35
CCc1nn(C(CC)C(=O)NC(C)C)c(=O)c2cc3oc(C)cc3n12 (stereo not drawn),-0.16,0.24
COc1ccc(S(=O)(=O)Nc2c(-n3cnnc3)nn(C)c2C)cc1,-0.1,0.54
CCCCn1cc(S(=O)(=O)c2ccc(F)cc2)c(=O)c2cc(Cl)ccc21,0.74,1.18
O=C(Nc1cccc([N+](=O)[O-])c1)C(=S)NCc1ccco1,-0.87,.
COc1ccc(-c2nc(-c3ccc(C)s3)no2)cc1,.,2.29
CCOCCSc1ncc(CO)n1Cc1ccc(F)cc1,.,0.64
O=C(COc1ccc(F)cc1)Nc1nnc2n1CCCS2,.,1.61
CC(Cc1ccco1)NC(=O)CCC(=O)N1CCCn2nc(-c3cccn3C)cc21 (stereo not drawn),.,1.47
Cn1nnc2c(N3CCN(C(=O)c4ccco4)CC3)ncnc21,.,2.14

# The list goes on.
SMILES,CDC25B CDK2 inh,TAR Tat displ
Cc1nn(-c2ccccc2)cc1-c1noc(C(=O)N2CCCC2)n1,.,0.65
CC1CCCCC1NC(=O)Nc1cn(C)c(=O)c2ccccc12 (stereo not drawn),.,-1.99
O=C(CSc1ccc(-c2cccs2)nn1)c1ccc(Cl)cc1,.,0.73
Cc1nc2cc(S(=O)(=O)N3CCC(C(=O)N4CCCCC4)CC3)ccc2n1C1CCCC1,-1.21,0.62
CCOC(=O)c1ncn2c(=O)c3c(C(=O)OCC)ncn3c(=O)c12,-0.51,2.43
Cc1noc(/C=C/c2cccs2)c1S(=O)(=O)N1CCCC(C(=O)N2CCN(C)CC2)C1 (stereo not drawn),-0.37,0.48
CCc1ccc(-n2nnc(-c3nc(-c4ccc(C)cc4)no3)c2N)cc1,.,-0.09
Cn1c(=O)c2c(nc(C(N)=O)n2C)n(C)c1=O,-2.06,0.11
COc1ccc(-c2n[nH]c(=S)n2-c2ccccc2Cl)cc1,0.57,.
CCC1SC2=NCN(c3ccccc3)CN2C1=O (stereo not drawn),-2.24,1.81
CCc1c(C)c(C#N)c2nc3ccccc3n2c1-n1ccnc1C,-3.1,0.09
CC1Cc2cc(S(=O)(=O)CCC(=O)N3CCN(c4ccccc4F)CC3)ccc2N1C(=O)C1CC1 (stereo not drawn),.,-0.37
CCCCCCCCCCOc1ccc(C(C)=O)cc1,-1.43,.
COC(=O)c1c(NC(=O)c2c(OC)cccc2OC)sc2c1CCC2,-1.66,-0.21
